# Compound activity deposited in PubChem BioAssay by several laboratories.
# Beta cell apopt – blocks beta cell apoptosis | INS-1E cytokine-induced death, ATP luminescence, 48 h; percent of positive-control rescue, neutral wells zero | protection from apoptosis, % (no concentration beside the values) | actives 0.8% (n = 300,000);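 active = all replicates at 75% or more, or half of them and the mean; inconclusive = half reach 75% but not the mean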;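 also: 0% = cytokine-treated negative control wells and 100% = positive control rescue; higher means more ATP so stronger rescue from cytokine killing; wells of about 40 µL received 100 nL stock; the first replicate is given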
# T cruzi repl – blocks replication of Trypanosoma cruzi; T. cruzi beta-gal in NIH3T3, luminescence, 90 h; inhibition, % (concentration not given with the values); actives 1.4% (n = 300,000);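 active = mean inhibition across valid replicates above about 55%, limit read from the data; inconclusive = mean below that limit but half or more replicates reach it; inactive = mean below it, under half of replicates reach it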;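 also: signal also drops with host cell toxicity which is not excluded here; 0% = plate median of DMSO wells and 100% = zero luminescence signal; higher percent means less beta-gal luminescence so fewer parasites; stock transfer was 50 nL into about 50 µL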
# A1 inh – inhibitors of the anti-apoptotic protein A1, read as caspase activation; MEF A1-2A-BIM cells, Caspase-Glo 3/7 luminescence, 3 h; percent of clofoctol response, vehicle zero; AID 2462; actives 0.066% (n = 330,000); caspase activation, % (no concentration beside the values);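 active = over half of replicate activation scores above 10%, or exactly half above 10 with the replicate mean above 10; inconclusive = replicate mean below 10 yet half the replicates above 10; inactive = over half of replicates below 10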;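 also: wells of about 30 µL received 50 nL stock; many hits fall short of the cut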
# RanGTP-Imp inh – inhibitors of RanGTP-importin-beta interaction, primary screen, biochemical, FRET, CFP-Ran, YFP-importin-beta, homogeneous; cell-free CFP-Ran/YFP-importin-beta FRET ratio; actives 1.1% (n = 300,000); inhibition, % (test concentration not listed);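 active = most replicates above 15%; inconclusive = exactly half above 15%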;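 also: 0% = DMSO wells and 100% = Ran loaded with GDP instead of GTP; wells of about 40 µL received 100 nL stock; the first replicate is given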
# LANA-H2B inh – blocks KSHV LANA binding to histone H2A/H2B | cell-free LANA-H2A/H2B peptide, fluorescence polarization | inhibition, % (no concentration beside the values) | actives 0.6% (n = 320,000); in the data active = inhibition mostly above about 10%, no sharp cut-off; inactive = mostly below about 6.7%;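 also: stock transfer was 7.5 nL into about 10 µL; 0% = median of vehicle wells and 100% = median of positive control wells; one replicate is shown; the record names a cut of 25% in any replicate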
# MLL AF4-AF9 inh – blocks AF4 peptide binding to human AF9. AlphaScreen, biotin-AF4 peptide binding to FLAG-AF9. inhibition, % at 10 µM. actives 0.47% (n = 350,000);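 active = every replicate reaching a set inhibition limit, whatever the replicate mean, cut at about 25% in these data; inconclusive = mean inhibition reaches that limit but some replicates miss it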;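 also: 0% = plate neutral control median and 100% = total signal loss; the record names both 10 and 1 µM as test concentration; the first replicate is given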
# Target sequence (P42568 whole entry, looked up): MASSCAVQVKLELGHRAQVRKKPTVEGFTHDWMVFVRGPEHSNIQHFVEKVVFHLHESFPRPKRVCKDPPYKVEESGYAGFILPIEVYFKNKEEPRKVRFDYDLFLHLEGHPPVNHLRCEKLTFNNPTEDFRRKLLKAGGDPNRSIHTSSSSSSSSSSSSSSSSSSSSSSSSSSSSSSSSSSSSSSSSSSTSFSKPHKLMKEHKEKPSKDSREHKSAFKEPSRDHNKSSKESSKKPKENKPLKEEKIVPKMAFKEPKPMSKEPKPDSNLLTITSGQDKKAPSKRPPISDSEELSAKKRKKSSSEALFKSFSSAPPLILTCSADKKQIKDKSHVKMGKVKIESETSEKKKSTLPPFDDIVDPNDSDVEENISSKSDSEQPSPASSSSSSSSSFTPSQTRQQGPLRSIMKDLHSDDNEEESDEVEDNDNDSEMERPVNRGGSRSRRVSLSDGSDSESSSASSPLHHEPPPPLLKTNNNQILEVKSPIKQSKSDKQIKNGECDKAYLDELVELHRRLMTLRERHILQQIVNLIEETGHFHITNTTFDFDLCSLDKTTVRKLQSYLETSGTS
# Calb FLC – C. albicans growth modulation with fluconazole | growth inhibition, % (concentration not given with the values) | C. albicans CaCi-2 (fluconazole-resistant clinical isolate) + fluconazole, Alamar Blue growth, 48 h | AID 1979 | actives 0.57% (n = 300,000);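 active = most replicates above 75%; inconclusive = exactly half above 75%; inactive = most below 75%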;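 also: all wells also contain fluconazole at 8 µg/ml as a sub-toxic cotreatment; 0% = median of DMSO wells and 100% = median of geldanamycin control wells; wells of about 8 µL received 7.5 nL stock; the first replicate is given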
# Vif A3G – HIV-1 Vif–A3G interaction blockers – biochemical, TR-FRET, GST-Vif 1-94, biotin-A3G peptide, dose response retest, primary screen (AID 1117319); actives 0.57% (n = 260,000); inhibition, %, or IC50 in µM where a hit was titrated; TR-FRET GST-Vif / biotin-A3G peptide binding; higher % means a stronger effect; test concentration not given here; strong numbers were not always called active;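 active = above the screen mean plus three standard deviations and confirmed in dose response; inconclusive = results disagree or hit not tested in dose response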;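 also: Vif residues 1-94 fused to GST binding biotinylated APOBEC3G peptide 110-148; 0% = full assay without inhibitor and 100% = GST in place of GST-Vif; retest series ran down from 100 µM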
# The depositor's hits bear a star; ? = inconclusive; . = not tested or not shown; & = joins results of further samples.
SMILES,Beta cell apopt,T cruzi repl,A1 inh,RanGTP-Imp inh,LANA-H2B inh,MLL AF4-AF9 inh,Calb FLC,Vif A3G
COc1ccc(-c2cc3cc(OC)c(OC)cc3cn2)cc1OC,3,1,-0.7,0.9,-4.9,-2.0,-9,.
CC(C)CN1CCN(Cc2nc(C(C)C)cs2)CC1CCO (stereo not drawn),-6,4,0.5,-2.5,-0.2,2.0,-5,32%
COc1ccc(Cl)cc1C(=O)CSc1nnnn1C,3,-8,0.1,-0.5,3.9,0.6,-8,7%
CN(C)CCCNc1c2ccccc2nc2ccccc12,109*,68*,0.8,108*,-3.0,2.4,21,0%
CCc1nnc(N2C(=O)c3ccccc3C2(O)c2ccccc2)s1 (stereo not drawn),1,-9,-0.1,2.9,-2.2,3.2,11,20%
CCS(=O)(=O)c1ccc(O)c(NC(=O)c2ccc(S(=O)(=O)N3CCCCCC3)cc2)c1,3,.,-0.8,.,2.9,3.3,.,2%
O=C(c1cccs1)N(c1cccc(Cl)c1)C1C=CS(=O)(=O)C1 (stereo not drawn),-2,8,0.2,2.3,-2.4,-2.3,12,?
C=CCN(c1ccc(C(=O)Nc2ccc(NC(C)=O)cc2)cc1)S(C)(=O)=O,-6,-10,0.3,-0.7,2.5,-0.6,-12,2%
CCc1ccc(-n2c(=O)c3ccccc3n(CC(=O)NCc3ccco3)c2=O)cc1,15,-12,-1.2,-0.2,-3.1,1.4,1,-3%
COc1ccc2nc(C)cc(SCC(=O)O)c2c1,-6,8&-7,1.3&-0.4,0.8&0.4,-0.1&-6.0,.,29&5,2%&-1%
Cc1ccccc1N1C(=S)NC2c3ccccc3OC1(C)C2C(=O)N(C)C (stereo not drawn),-2,-2,2.3,0.1,6.6,-3.4,19,4%
COC(=O)Cc1c(C)nc2nc(NCc3ccccc3OC)[nH]n2c1=O,2,-22,0.5,8.0,0.1,.,-3,10%
Cc1ccc(/C=N/n2c(-c3ccncc3)n[nH]c2=S)cc1,.,4,.,-4.5,.,-2.8,?,5%
COc1ccc(Nc2ccc(N3C(=O)CC(C)C3=O)cc2[N+](=O)[O-])cn1 (stereo not drawn),-5,-3,1.8,-0.9,3.3,0.9,-1,10%
COc1ccc(N2C(=O)CC(N3CCC(O)(c4ccc(Cl)cc4)CC3)C2=O)cc1 (stereo not drawn),1,-6,-0.5,1.3,-1.6,.,-10,5%
CCOC(=O)c1[nH]c(C)c(C(=O)OCC(=O)N2c3ccccc3CC2C)c1C (stereo not drawn),-1,-6,0.0,1.5,6.8,.,27,0%
c1ccc(-c2noc(-c3cccc4ccccc34)n2)cc1,-3,-14,0.1,-1.5,5.1,.,6,-6%
COC(=O)CCCCC1SCC2NC(=O)NC21 (stereo not drawn),0,-6,0.4,2.8,0.9,7.9,-2,-9%
O=C(CSc1nc2ccccc2[nH]1)Nc1nc(-c2ccccc2)c(-c2ccccc2)o1,-4,17,0.0,6.8,1.7,.,-3,16%
COc1ccccc1NS(=O)(=O)c1cc(NC(=O)C2=NNC(=O)CC2)ccc1C,4,.,1.0,.,-2.1,0.3,.,-6%
O=S(=O)(c1cccc(C(F)(F)F)c1)N1CCCC1c1cccnc1 (stereo not drawn),-2,.,-0.5,0.0,1.3,1.3,0,4%
O=C1CC2(CCCC2)C(=O)N1CN1CCN(S(=O)(=O)c2ccc(F)cc2F)CC1,-1,.,-0.4,.,-1.6,-3.9,.,-1%
CSc1ccc(S(=O)(=O)N2CCC(C(=O)NCc3ccco3)CC2)cc1,-6,10,1.2,3.4,-4.5,-0.8,2,.
Cc1cnn(C(=S)NCCc2ccccc2)c1,-3,-2,-0.4,0.9,2.2,.,1,-1%
CC1(C)CC(=O)C2=C(C1)N(c1ccccc1)C(=O)CC2c1ccc(O)cc1 (stereo not drawn),-5,-3,?,2.5,4.1,-5.6,-11,-5%
O=C(CCSc1ccccc1)N1CCN(C(=O)c2ccco2)CC1,1,10,0.2,4.3,15,-5.1,3,-4%
COc1ccc(-c2[nH]ncc2C=O)cc1OC,-3,-12,-0.6,1.1,-19,1.3,-13,-5%
CC(Sc1ccccc1)C(=O)N1CCN(S(=O)(=O)c2ccccc2)CC1 (stereo not drawn),-1,-2,0.3,0.1,4.8,-1.2,-1,.
CSc1nc(C)cc(C)c1C(N)=O,-6,-14,-0.3,-1.1,-0.6,.,-6,-1%
Cc1cccc(C)c1NC(=O)C(Cl)C(=O)c1ccccc1 (stereo not drawn),9,7,4.0,-4.6,0.3,-4.1,-26,.

# Structures from the list above that have a furan ring, fused or not (three):
SMILES,Beta cell apopt,T cruzi repl,A1 inh,RanGTP-Imp inh,LANA-H2B inh,MLL AF4-AF9 inh,Calb FLC,Vif A3G
CCc1ccc(-n2c(=O)c3ccccc3n(CC(=O)NCc3ccco3)c2=O)cc1,15,-12,-1.2,-0.2,-3.1,1.4,1,-3%
CSc1ccc(S(=O)(=O)N2CCC(C(=O)NCc3ccco3)CC2)cc1,-6,10,1.2,3.4,-4.5,-0.8,2,.
O=C(CCSc1ccccc1)N1CCN(C(=O)c2ccco2)CC1,1,10,0.2,4.3,15,-5.1,3,-4%

# (more compounds)
SMILES,Beta cell apopt,T cruzi repl,A1 inh,RanGTP-Imp inh,LANA-H2B inh,MLL AF4-AF9 inh,Calb FLC,Vif A3G
COc1ccc(NS(=O)(=O)c2cc3c(cc2C)N(C(C)=O)CCO3)cc1,1,0,1.0,-0.8,-1.7,53*,-2,.
CC(C)(C)c1cnnn1-c1ccc(NC(=O)c2ccc3c(c2)OCO3)cc1,2,-14,-1.1,0.3,5.1,.,3,19%
Cc1c(C(=O)O)sc(=S)n1-c1ccccc1,0,7,-0.4,-3.0,-0.2,.,0,0%
Cn1nnnc1SCC(=O)Nc1sccc1C(N)=O,-2,.,-0.4,.,-4.3,-1.6,.,-5%
CC(C)c1ccc(OCC(=O)N2CCCCCC2)c(Br)c1,-9,28,0.6,8.1,-0.3,-0.5,0,-3%
Cc1cc(NC(=O)c2cnn3c(C(F)F)cc(C4CC4)nc23)no1,15,0,0.3,-1.7,0.0,.,3,1%
Cc1ccc(C)c(N2CCN(C(=O)CCCn3c(=O)c4cccn4c4cccnc43)CC2)c1,3,2,-1.7,-1.9,-0.4,3.5,17,4%
Cn1c(N)c(C(=O)CSc2nnc(-c3c[nH]c4ccccc34)n2C2CC2)c(=O)[nH]c1=O,-4,.,0.0,.,7.5,1.4,.,-11%
CCCCNC(=O)CCn1c(=O)c2ccccc2n(CC(=O)NCCc2ccc(OC)c(OC)c2)c1=O,-4,4,-0.1,-2.0,-5.9,0.4,-28,6%
CCN(CC)CCOc1ccc2c(c1)C(=NNC(=O)c1ccccn1)c1cc(OCCN(CC)CC)ccc1-2,107*,49,0.4,.,-1.6,57*,.,.

# 2 records picked at random from those above:
SMILES,Beta cell apopt,T cruzi repl,A1 inh,RanGTP-Imp inh,LANA-H2B inh,MLL AF4-AF9 inh,Calb FLC,Vif A3G
Cc1cc(NC(=O)c2cnn3c(C(F)F)cc(C4CC4)nc23)no1,15,0,0.3,-1.7,0.0,.,3,1%
Cc1c(C(=O)O)sc(=S)n1-c1ccccc1,0,7,-0.4,-3.0,-0.2,.,0,0%

# Entries of single compounds, looked up by structure.
# Cn1c(N)c(C(=O)CSc2nnc(-c3c[nH]c4ccccc34)n2C2CC2)c(=O)[nH]c1=O reads Beta cell apopt = -4; T cruzi repl = .; A1 inh = 0.0; RanGTP-Imp inh = .; LANA-H2B inh = 7.5; MLL AF4-AF9 inh = 1.4; Calb FLC = .; Vif A3G = -11%
# CCc1ccc(-n2c(=O)c3ccccc3n(CC(=O)NCc3ccco3)c2=O)cc1 reads Beta cell apopt = 15; T cruzi repl = -12; A1 inh = -1.2; RanGTP-Imp inh = -0.2; LANA-H2B inh = -3.1; MLL AF4-AF9 inh = 1.4; Calb FLC = 1; Vif A3G = -3%

# Remaining list, next part.
SMILES,Beta cell apopt,T cruzi repl,A1 inh,RanGTP-Imp inh,LANA-H2B inh,MLL AF4-AF9 inh,Calb FLC,Vif A3G
O=C(Nc1ccccc1)NC1(C(=O)NCc2ccc3c(c2)OCO3)CCCCC1,5,12,0.1,-0.4,1.8,.,-1,?
CCCc1cc(=O)oc2c(CN(CC)CC)c(O)c(Cl)cc12,-7,-14,0.4,24*,-3.7,-7.1,8,.
CCOc1ccccc1NC(=O)CSCC(=O)Nc1ccccc1,-3,-11,0.3,0.1,7.3,.,6,-2%
CN1CCN(C(=S)Nc2cccc(Cl)c2)CC1,-6,-38,-0.8,10,0.1,.,-25,-1%
COc1cc(-c2nnc(-c3ccncc3)o2)ccc1OCc1ccccc1,9,-7,-1.0,2.3,0.6,.,-6,-6%
Cc1ccc(NC(=O)c2ccc(CSc3nnc(C)s3)cc2)cc1,10,2,-1.1,-1.1,-3.6,.,5,8%
Cc1nc(Cc2nnc(SCC(=O)Nc3c(C)cccc3C)o2)cs1,-6,0,0.4,3.3,3.3,-0.3,1,0%
Cc1ccc(C)c(Oc2coc3cc(OCC(=O)Nc4ccccc4C(C)C)ccc3c2=O)c1,3,7,0.3,-3.0,-7.9,.,-11,-1%
CCOc1ccccc1-n1c(CNc2ccc(F)cc2)nnc1SCC(=O)NCc1ccco1,-1,-3,-2.1,-2.1,-2.9,.,2,-2%
CC12CCC(C(=O)N(CC(O)CN3CCN(Cc4ccccc4)CC3)C1=O)C2(C)C (stereo not drawn),-4,38,1.0,1.9,-0.4,2.8,3,-2%
CN(C)CCCNc1nc2sc3c(c2c(=O)n1CCc1ccccc1)CCCCC3,-24,?,0.2,3.4,-11,9.7,1,29%
CCCCc1c(C)nc2c(OC)cccc2c1SCCC(=O)O,-7,-2,-0.1,3.9,6.3,.,40,-2%
COc1cc(NC(=O)Nc2cccc3cccnc23)cc(OC)c1OC,.,-8,1.6,0.3,-2.1,5.9,-1,5%
COc1ccc(/C=N/NC(=O)CCOc2ccccc2C)cc1OC,4,-15,0.7,5.8,-0.4,2.7,12,-7%
COc1ccc([C@H]2/C=C\CN(C(=O)c3ccc(C)cc3)[C@@H](C)C(=O)N2Cc2ccc(F)cc2)cc1,4,12,-0.5,-0.1,-0.5,1.8,8,.
CC(C)(O)[C@@H]1CC(=O)[C@]2(C)[C@H](CC[C@@]3(C)[C@H](c4ccoc4)OC(=O)[C@H]4O[C@]432)[C@@]1(C)/C=C\C(=O)O,-1,.,-0.4,.,2.0,-5.8,.,.
Cc1cc(C)cc(C(=O)NC(=S)Nc2ccc(-c3cc4ccccc4oc3=O)cc2)c1,3,32,0.6,2.0,-8.0,.,2,.
